# Screens: PubChem, several laboratories
# RanGTP-Imp inh = disruptors of Ran-importin-beta complex formation – biochemical, FRET, CFP-Ran, YFP-importin-beta, homogeneous, primary screen | cell-free CFP-Ran/YFP-importin-beta FRET ratio | inhibition, % (concentration not given with the values) | actives 1.1% (n = 300,000);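 active = most replicates above 15%; inconclusive = exactly half above 15%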;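 note: 0% = DMSO wells and 100% = Ran loaded with GDP instead of GTP; wells of about 40 µL received 100 nL stock; the first replicate is given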
# ALR inh = blocks human ALR sulfhydryl oxidase activity. purified ALR, DTT oxidation, H2O2 HRP-luminol luminescence. AID 485317. inhibition, % (test concentration not listed). actives 3.8% (n = 290,000);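 active = mean and each replicate at 75% or more; inconclusive = only one of the two met; inactive = neither met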;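 note: stock transfer was 7.5 nL into about 7.5 µL; 0% = neutral wells and 100% = wells with inactivated enzyme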
# Target sequence (P55789 whole entry, looked up): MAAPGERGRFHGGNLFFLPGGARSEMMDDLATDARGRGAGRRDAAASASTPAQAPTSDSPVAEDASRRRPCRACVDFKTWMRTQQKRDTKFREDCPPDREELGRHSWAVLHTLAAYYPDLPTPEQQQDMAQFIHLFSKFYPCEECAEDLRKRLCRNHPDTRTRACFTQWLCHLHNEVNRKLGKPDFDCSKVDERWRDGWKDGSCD
# LANA-H2B inh = blocks KSHV LANA binding to histone H2A/H2B; Q9QR71; actives 0.6% (n = 320,000); AID 2629; cell-free LANA-H2A/H2B peptide, fluorescence polarization; inhibition, % (concentration not given with the values); in the data active = inhibition mostly above about 10%, no sharp cut-off; inactive = mostly below about 6.7%;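 note: stock transfer was 7.5 nL into about 10 µL; 0% = median of vehicle wells and 100% = median of positive control wells; one replicate is shown; the record names a cut of 25% in any replicate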
# Vif TR-FRET = inhibitors of Vif binding to APOBEC3G peptide, primary screen, biochemical, TR-FRET, GST-Vif 1-94, biotin-A3G peptide, dose response retest (AID 1117319). actives 0.57% (n = 260,000). TR-FRET GST-Vif / biotin-A3G peptide binding; higher % means a stronger effect; test concentration not given here; strong numbers were not always called active. one-dose inhibition, %; IC50 in µM for titrated hits;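 active = above the screen mean plus three standard deviations and confirmed in dose response; inconclusive = results disagree or hit not tested in dose response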;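 note: Vif residues 1-94 fused to GST binding biotinylated APOBEC3G peptide 110-148; 0% = full assay without inhibitor and 100% = GST in place of GST-Vif; retest series ran down from 100 µM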
# B2AR ag = human beta-2 adrenergic receptor agonism by FAP; AID 504454; actives 0.43% (n = 340,000); response, % (no concentration beside the values); Am2.2-beta2AR cells, FAP receptor internalization, flow cytometry; reference of the scale not given here;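 active = response above a set limit, near 3 SD of response in nonfluorescent compounds, cut at about 42% in these data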;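 note: stock transfer was 100 nL into about 11 µL; a reference agonist was the positive control; negative values mostly stem from fluorescent compounds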
# Target sequence (P07550 whole entry, looked up): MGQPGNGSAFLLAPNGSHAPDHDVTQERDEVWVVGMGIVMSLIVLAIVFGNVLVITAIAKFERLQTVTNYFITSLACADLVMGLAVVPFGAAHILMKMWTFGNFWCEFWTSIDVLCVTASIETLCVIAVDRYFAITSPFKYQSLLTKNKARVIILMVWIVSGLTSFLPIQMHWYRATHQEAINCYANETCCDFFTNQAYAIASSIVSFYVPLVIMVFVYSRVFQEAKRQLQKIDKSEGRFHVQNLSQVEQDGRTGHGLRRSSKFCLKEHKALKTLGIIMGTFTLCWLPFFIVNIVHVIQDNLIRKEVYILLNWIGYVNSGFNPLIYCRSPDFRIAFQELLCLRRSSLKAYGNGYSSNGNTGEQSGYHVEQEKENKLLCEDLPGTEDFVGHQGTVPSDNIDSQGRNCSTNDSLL
# Calb FLC = C. albicans growth modulation with fluconazole; actives 0.57% (n = 300,000); C. albicans CaCi-2 (fluconazole-resistant clinical isolate) + fluconazole, Alamar Blue growth, 48 h; growth inhibition, % (concentration not given with the values);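 active = most replicates above 75%; inconclusive = exactly half above 75%; inactive = most below 75%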;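 note: all wells also contain fluconazole at 8 µg/ml as a sub-toxic cotreatment; 0% = median of DMSO wells and 100% = median of geldanamycin control wells; wells of about 8 µL received 7.5 nL stock; the first replicate is given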
# HNF4A DNA FP = change in binding of human HNF4 alpha to DNA; P41235; HNF4a-FITC DNA binding, fluorescence polarization, 1 h; activity change, % at 10 µM; actives 0.3% (n = 360,000); in the data active = activity change above about 30%, passing the limit was not always enough;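 note: controls were the assay level and a saturating level of protein; the project sought stronger binding though the title names inhibitors; some compounds called inactive have numbers as strong as hits; positive values seem to mean higher polarization but the record does not say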
# Target sequence (P41235 whole entry, looked up): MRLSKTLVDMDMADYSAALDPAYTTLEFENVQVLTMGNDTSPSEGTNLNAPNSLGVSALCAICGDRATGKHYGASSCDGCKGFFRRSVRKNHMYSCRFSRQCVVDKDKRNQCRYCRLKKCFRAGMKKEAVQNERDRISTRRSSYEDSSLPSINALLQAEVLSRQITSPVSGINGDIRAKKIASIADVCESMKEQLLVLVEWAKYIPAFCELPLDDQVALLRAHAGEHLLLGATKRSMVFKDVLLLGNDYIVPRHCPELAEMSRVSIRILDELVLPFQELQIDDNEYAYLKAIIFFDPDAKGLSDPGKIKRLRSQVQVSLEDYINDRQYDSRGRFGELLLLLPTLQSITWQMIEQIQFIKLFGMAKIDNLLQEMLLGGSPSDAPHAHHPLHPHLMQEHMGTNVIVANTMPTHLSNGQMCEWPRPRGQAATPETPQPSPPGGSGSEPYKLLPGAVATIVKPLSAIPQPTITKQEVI
# Active calls of the source: *; ? = inconclusive; nt = no result given; & = joins results of further samples.
SMILES,RanGTP-Imp inh,ALR inh,LANA-H2B inh,Vif TR-FRET,B2AR ag,Calb FLC,HNF4A DNA FP
CCC(Oc1ccccc1)C(=O)Nc1ccccc1OC (centres undefined),6.6,1,-6.5,-3%,-2,-2,4.3
Nc1c(N(Cc2ccco2)C(=O)c2ccc(Cl)cc2)c(=O)[nH]c(=O)n1Cc1ccccc1,nt,-1,-0.3,-11%,0,nt,2.6
CN1CCN(c2ccccc2NC(=O)c2cc(Br)ccc2Cl)CC1,1.6,4,-3.1,?,2,-8,4.1
C=CCOc1ccccc1/C=N/NC(=O)Cc1ccccc1,-4.4,-19,-0.4,nt,-4,3,-1.5
CCCc1nc(Cl)c(C#N)c2c1CCCC2,-1.6,0,-3.0,nt,-3,-12,7.6
O=C(Nc1cccc(/C=C/c2ccccn2)c1)c1ccc(-n2cncn2)cc1,nt,0,3.5,-6%,11,nt,1.3
COc1ccc(CN(C)CC(=O)Nc2cc3oc4ccccc4c3cc2OC)c(OC)c1,2.3,-8,-4.2,-13%,6,6,0.2
CN(C)c1ccc(C2N(c3ccc(F)cc3)C(=O)C3CCCN32)cc1 (centres undefined),2.3,97*,-2.5,9%,3,-15,-3.0
CC1(C)Cc2c(c(=S)nc(-c3ccccc3)n2CCOCCO)CO1,5.1,-49,1.9,-3%,7,?,-0.3
CN(C)c1ccc(CN(C(=O)c2cccs2)C2CCS(=O)(=O)C2)cc1 (centres undefined),2.4,93*,2.1,nt,2,13,1.7
CCOc1cc(/C=C/c2cc(C(=O)O)c3ccccc3n2)ccc1OC,5.8,1,4.2,-5%,2,?,-3.2
COc1cccc2cc(C(=O)Nc3cccnc3N3CCOCC3)c(=O)oc12,-1.4,-2,1.5,6%&1%,29,-2,0.0
COCCNC(=O)CCc1nc2cccnc2n1Cc1ccc(OC)cc1,-1.9,-13,5.2,0%,4,-1,1.5
FC(F)(F)c1cc(Nc2ccccc2)nc(-c2ccccn2)n1,?,-2,-6.6,-6%,-20,7,-0.5
CCOc1ccc(C(=O)Nc2nc(C)c(C(=O)OC)s2)cc1,1.7,nt,6.9,nt,0,8,6.8
Cc1ccc(OCC(=O)Nc2ccc([N+](=O)[O-])cc2)cc1,6.7,-1,-7.8,-4%,3,-4,-2.8
O=C(COC(=O)/C=C/c1cccc([N+](=O)[O-])c1)Nc1cccnc1Cl,nt,0,5.1,3%,-4,nt,1.2
COC(=O)C(C)(C)NC(=O)c1cccs1,3.3,-3,13,-3%,-3,-14,-0.2
NNC(=O)c1ccc([N+](=O)[O-])c(CS(=O)(=O)c2ccc(Cl)cc2)c1,-1.0,-6,1.3,14%,-2,-30,-1.0
COC(=O)c1ccc(NC(=O)c2ccc3nc(C)sc3c2)cc1,-0.6,-7,16,nt,13,23,2.0
COc1ccc(-c2cc(C(F)(F)F)c(C#N)c(SCC(=O)O)n2)cc1,3.3,69,4.0,21%,15,-4,-4.4
COC1(NS(=O)(=O)c2ccc(Br)cc2)C(C)=CC(=O)C=C1C,-1.6,-10,-1.6,4%,0,5,2.9
CC(=O)Nc1ccc(NC(=O)C(C)OC(=O)CCCN=C2NS(=O)(=O)c3ccccc32)cc1 (centres undefined),5.0,-8,-4.7,-1%,-2,13,0.9
COc1ccccc1NC(=O)N1c2ccc(F)cc2CCC1C (centres undefined),0.9,nt,1.8,10%,3,8,-0.1
CN(c1ccccc1)S(=O)(=O)c1ccc(Cl)c(C(=O)Nc2ccccc2N2CCOCC2)c1,nt,nt,nt,-6%,3,nt,-0.1
O=S(=O)(Nc1cc(S(=O)(=O)N2CCOCC2)ccc1NCC1CCCO1)c1ccccc1F (centres undefined),nt,23,4.9,4%,-2,nt,2.4
c1ccc(-c2nnc(-c3ccccn3)nn2)nc1,1.3,-16,-0.7,nt,5,7,0.2
COc1ccc2c(c1)c(/C=N/Nc1ccc(C(=O)O)cc1)c(C)n2C,-5.8,-4,-1.4,10%,-3,-5,3.4
Cc1ccc(C)c(S(=O)(=O)N2CCN(C(=O)c3ccc(OCc4c(C)noc4C)cc3)CC2)c1,-3.4,-5,5.9,-8%,5,-5,-0.5
O=C(CNC(=O)c1nc[nH]c1C(=O)N1CCNCC1)OCc1ccccc1,8.7,0,-5.7,nt,1,-7,2.1
c1ccc2c(c1)CCc1ccccc1C2=C1CCNCC1,3.2,-5,-1.3,nt,10,-2,2.7
O=C(NNC(=S)NC(=O)c1ccc(F)cc1)c1ccncc1,nt,44,3.1,8%,4,nt,0.1
NC(=O)C1CCN(Cc2nnnn2Cc2ccco2)CC1,4.4,-1,2.5,18%,2,5,2.1
NC(=O)[C@H]1CC2(CC(c3cccc(NC(=O)COc4ccc(Cl)cc4)c3)=NO2)CN1C(=O)c1ccccc1C(=O)c1ccccc1 (some centres undefined),-2.4,0,1.5,15%,8,14,1.5
CN1CCCCCC1=Nc1ccccc1C#N,-0.2,-3,0.6,9%,4,2,-4.0
CSc1ccc(S(=O)(=O)N2CC(=O)Nc3ccccc32)cc1,-0.3,-9,4.8,nt,-12,-2,5.4
CNC(=O)c1nnsc1S(=O)c1ccc(Cl)cc1 (centres undefined),-2.4,nt,nt,-34%,2,105*,-0.5
CCOC(=O)C1CCN(C(=O)N(CC)CC)CC1,0.1,0,-4.7,3%,4,-6,2.8
Cc1cc(C)n2nc(C(=O)OCC(=O)N(C)CC(=O)Nc3ccccc3Cl)nc2n1,-4.7,-4,-4.6,-10%,2,nt,2.0
Cc1cc(NC(=O)c2cccs2)no1,-2.2,-4,-0.8,nt,-3,3,2.5
CCN(CC)C(=O)CC(c1ccc2c(c1)OCO2)c1c(OC)cc(OC)c2ccc(=O)oc12 (centres undefined),?,4,-2.7,nt,-9,5,-11
Cc1ccc2c(c1)NC(=O)c1cc([N+](=O)[O-])ccc1O2,1.0,-3,-0.1,74%,2,1,2.9
O=C(Nc1ccc2c(c1)OCO2)c1cccc2c1C(=O)N(Cc1cccnc1)C2,2.1,-4,-1.4,22%,36,10,4.0
O=C(C1CCCO1)N1CCN(S(=O)(=O)c2cc(C(F)(F)F)ccc2Cl)CC1 (centres undefined),nt,nt,nt,-3%,-1,nt,1.2
COc1ccc2[nH]c3c(c2c1)CCNC3=O,7.1,nt,1.2,nt,-1,-2,1.7
COc1ccc(-c2csc(N3CCN(C(=O)c4ccco4)CC3)n2)cc1,-6.6,64,-2.0,-4%,-1,5,3.0
COc1ccc(Br)cc1/C=C1\Oc2ccccc2NC1=O,0.8,-5,1.1,6%,3,-14,3.1
Cc1ccc(S(=O)(=O)CC(O)COc2ccc(F)cc2Cl)cc1 (centres undefined),-1.6,0,-0.6,13%,-9,19,3.5
Cc1cccc(S(=O)(=O)Nc2nc3ccccc3nc2Nc2ccc3c(c2)OCO3)c1,3.7,-1,-4.4,31%,4,-2,-1.9
CC(C)NC(=O)N(C)C[C@H]1Oc2ccc(NS(=O)(=O)c3ccc(Cl)cc3)cc2CC(=O)N([C@@H](C)CO)C[C@@H]1C,nt,0,-0.6,nt,0,nt,-0.1
CC1CCCC(C)N1C(=O)CSc1nc(N)cc(N)n1 (centres undefined),4.1,-13,-0.7,nt,1,-5,53*
COC(=O)C1=C(C)N(CCc2ccccc2)C(=O)C1(NS(=O)(=O)c1ccc(NC(C)=O)cc1)C(F)(F)F (centres undefined),0.4,nt,6.4,-1%,-1,3,-1.6
Cc1ccc(NC(=O)C2CCN(S(=O)(=O)c3c(C)nn(C)c3C)CC2)c(Cl)c1,0.1,-4,-4.0,8%,-4,-4,-1.7
COc1ccc(NC(=O)CCN2C(=O)c3ccccc3S2(=O)=O)c(OC)c1,-6.4,-4,-5.1,nt,15,-10,1.7
CC1CC(C)(C)N(C(=O)NC2CCCCC2)c2ccccc21 (centres undefined),-3.2,15,2.1,-9%,-1,-14,-3.3
O=C(C1CC(=O)N(C2CCCC2)C1)N1CCN(c2cccc(C(F)(F)F)c2)CC1 (centres undefined),nt,nt,nt,-8%,8,nt,-0.3
CC1(C)Cc2ccccc2-c2nc(CN3CCOCC3)[nH]c(=O)c21,0.9,1,1.4,-1%,9,6,2.1
COc1ccc2nc(C(F)(F)C(F)(F)F)c(C#N)c(N)c2c1,-3.9,-6,0.2,-6%,3,12,-2.3
COc1ccc(N2C(=O)c3ccccc3NC2c2ccc(OC)c(COc3ccccn3)c2)cc1 (centres undefined),-0.7,-3,-2.0,nt,2,0,2.5
COc1ccc(N/C=C2\C(=O)CCc3c2oc2cc(Cl)c(O)c(Cl)c32)cc1,?,70,-4.7,1%,9,3,13

# A stretch from further up, as a working copy:
SMILES,RanGTP-Imp inh,ALR inh,LANA-H2B inh,Vif TR-FRET,B2AR ag,Calb FLC,HNF4A DNA FP
Cc1ccc(S(=O)(=O)CC(O)COc2ccc(F)cc2Cl)cc1 (centres undefined),-1.6,0,-0.6,13%,-9,19,3.5
Cc1cccc(S(=O)(=O)Nc2nc3ccccc3nc2Nc2ccc3c(c2)OCO3)c1,3.7,-1,-4.4,31%,4,-2,-1.9
CC(C)NC(=O)N(C)C[C@H]1Oc2ccc(NS(=O)(=O)c3ccc(Cl)cc3)cc2CC(=O)N([C@@H](C)CO)C[C@@H]1C,nt,0,-0.6,nt,0,nt,-0.1
CC1CCCC(C)N1C(=O)CSc1nc(N)cc(N)n1 (centres undefined),4.1,-13,-0.7,nt,1,-5,53*
COC(=O)C1=C(C)N(CCc2ccccc2)C(=O)C1(NS(=O)(=O)c1ccc(NC(C)=O)cc1)C(F)(F)F (centres undefined),0.4,nt,6.4,-1%,-1,3,-1.6

# Three compounds from above, ordered by SMILES length, lowest first:
SMILES,RanGTP-Imp inh,ALR inh,LANA-H2B inh,Vif TR-FRET,B2AR ag,Calb FLC,HNF4A DNA FP
COc1ccc(-c2csc(N3CCN(C(=O)c4ccco4)CC3)n2)cc1,-6.6,64,-2.0,-4%,-1,5,3.0
Cc1ccc(NC(=O)C2CCN(S(=O)(=O)c3c(C)nn(C)c3C)CC2)c(Cl)c1,0.1,-4,-4.0,8%,-4,-4,-1.7
COC(=O)C1=C(C)N(CCc2ccccc2)C(=O)C1(NS(=O)(=O)c1ccc(NC(C)=O)cc1)C(F)(F)F (centres undefined),0.4,nt,6.4,-1%,-1,3,-1.6

# (continued)
SMILES,RanGTP-Imp inh,ALR inh,LANA-H2B inh,Vif TR-FRET,B2AR ag,Calb FLC,HNF4A DNA FP
Cc1ccc(C(=O)N/C(=C\c2ccc(Cl)cc2)C(=O)NCC2CCCO2)cc1 (centres undefined),2.3,-6,4.9,-14%,-6,-9,1.5
COc1ccc(/C(C)=N/NS(=O)(=O)c2ccccc2)c(OC)c1,1.3,-1,2.8,nt,1,-1,2.6
Cc1ccc(NC(=O)CC(C)N2CCCC2)cc1 (centres undefined),1.1,-8,-2.7,1%,5,2,5.7
COc1cccc(OCCNC(=O)CSc2ccc(C(F)(F)F)cc2[N+](=O)[O-])c1,-2.6,-6,5.3,7%,-5,-4,1.9
O=C(Cc1ccccc1)NCC(=O)OCc1ccc([N+](=O)[O-])cc1,4.3,-22,2.2,nt,6,3,2.3
CCN=C1NN=C(c2c[nH]c3ccccc23)CS1,4.1,?,-1.4,20%,-2,12,3.1
CS(=O)(=O)Nc1ccc2c(c1)C(=O)OC2,-0.3,-21,-0.1,15%,4,-1,2.8
CC1(C)CC(=O)C(c2c[nH]c3ccccc23)C(=O)C1,2.3,nt,0.0,nt,-3,16,4.4
CC(NC(=O)CSc1nc(=O)cc(N)n1-c1ccccc1)c1ccccc1 (centres undefined),-4.2,4,1.1,4%,1,-9,3.6
COc1ccccc1-c1cc2nc(C)c(CCC(=O)NCc3ccc(F)cc3)c(C)n2n1,5.7,-5,-3.2,nt,-3,-4,-2.0
COc1ccc(CCN2C(=O)CSC2c2cccc([N+](=O)[O-])c2)cc1OC (centres undefined),0.3,-8,6.9,nt,-1,0,-2.4
c1ccc(CNc2ccccn2)cc1,?,2,2.8,nt,0,3,1.4

# Not a hit list, and some 6.3% of all compounds hit somewhere here.
